miR-21 reporter – raises the signal of a miR-21 reporter; 340,000 tested, under 10 active; AID 2288; HeLa miR-21 FLuc reporter, luciferase, 48 h; Potency, µM (top dose mostly 38.3 µM), without a hit: at the top dose reporter change, positive = more light; active = well fitted rising curve with a large enough effect; inconclusive = small, poorly fitted or top-dose-only effect; inactive = no such curve, though single readings can be large or run the other way;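 note: % of control where 0% means no effect; miR-21 action dims this reporter so a rising signal means less miR-21 action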
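HeLa miR-21-FLuc reporter line, endogenous miR-21; 2000 cells/well in DMEM/10% FBS; compound titration up to ~40uM final, 48 h, 37 degree Celsius; luciferase detection reagent, 15 min lysis, CCD luminescence.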
* = called active by the depositor.

Screening Cc1cc(C)c(NC(=O)CSc2nc(=O)[nH]c3c2CCCC3)c(C)c1 returned miR-21 reporter -1%.
Screening C=C(C)CSc1nc2sc3c(c2c(=O)n1-c1ccccc1)CC(C(C)C)OC3 (stereo not drawn) returned miR-21 reporter 4%.
COC(=O)c1c(NC(=O)c2cc3nc(-c4ccc(OC)cc4)cc(C(F)(F)F)n3n2)sc2c1CCCC2 was read as miR-21 reporter -1%.
Screening CSCCC(NS(=O)(=O)c1ccc2c(c1)oc(=O)n2C)C(=O)N1CCN(c2ccc(F)cc2)CC1 (stereo not drawn) returned miR-21 reporter -1%.
Screening CCOC(=O)N1CCC(NC(=O)c2cnn(-c3ccccc3)c2C2CCN(C(=O)OC(C)(C)C)CC2)CC1 returned miR-21 reporter -3%.
`CCCOc1ccc(NC(=O)C(=O)NCCCN2CCOCC2)cc1` gave miR-21 reporter 15%.
`CCn1cc(C(=O)N(C)c2cc(C)ccc2C)c2cc(OC)c(OC)cc2c1=O` gave miR-21 reporter 1%.
`CCc1cccc(N2C(=O)CSC23C(=O)Nc2ccccc23)c1` (stereo not drawn) gave miR-21 reporter -2%.
CC(C)c1ccc2c(c1)-c1ccccc1S(=O)(=O)N2CC(=O)N1CCCCC1 was read as miR-21 reporter -17%.
CCOc1ccc(NC(=O)Cn2nnc(C(=O)Nc3ccc(OCC)cc3)c2N)cc1 was read as miR-21 reporter -19%.
`COc1ccccc1NC(=O)CCCOc1cc(=O)n(C)c2ccccc12` gave miR-21 reporter -1%.
Screening CN(C)c1ccc(C(CNC(=O)c2ccc(C(C)(C)C)cc2)N2CCOCC2)cc1 (stereo not drawn) returned miR-21 reporter -9%.
CCOc1ccc(N(C)S(=O)(=O)c2ccc3c(c2)C(C)(C)C(=O)N3C)cc1 was read as miR-21 reporter -3%.
`CCc1nn2c(=O)cc(COC(=O)C(c3ccccc3)c3ccccc3)nc2s1` gave miR-21 reporter 9%.
For CCn1c(=N)c(C(=O)NCc2ccccc2)cc2c(=O)n3cc(C)ccc3nc21 the results were miR-21 reporter 0%.

Looked up by compound from the entries so far, 2 records:
`CCn1cc(C(=O)N(C)c2cc(C)ccc2C)c2cc(OC)c(OC)cc2c1=O` gave miR-21 reporter 1%.
Screening CCOC(=O)N1CCC(NC(=O)c2cnn(-c3ccccc3)c2C2CCN(C(=O)OC(C)(C)C)CC2)CC1 returned miR-21 reporter -3%.

New compounds follow
`COC(=O)c1ccc(C(=O)Nc2ccc(-c3nc4cc(NC(=O)c5ccc(C(=O)OC)cc5)ccc4o3)cc2)cc1` gave miR-21 reporter -7%.
For COc1ccc(C(=O)Nc2ccc3oc(-c4cccnc4)nc3c2)cc1 the results were miR-21 reporter 0%.
Screening COc1cc(NC(=O)Cn2c(=O)n(Cc3ccccc3)c(=O)c3oc4ccccc4c32)cc(OC)c1 returned miR-21 reporter 5%.
COc1ccc(Cn2c(CCC(=O)Nc3ccc(C)cc3C)nc3cccnc32)cc1 was read as miR-21 reporter 4%.
Screening Cc1cccc(N(C)C(=O)CCNS(=O)(=O)c2ccc3c(c2)CCN3C(=O)C2CC2)c1 returned miR-21 reporter 5%.
`Cc1cccc(CCNC(=O)c2ccc(CSCc3cccc(Cl)c3)o2)c1` gave miR-21 reporter 5%.
For CCCCCSc1nnc2c(n1)OC(c1ccc(C)s1)N(C(C)=O)c1ccccc1-2 (stereo not drawn) the results were miR-21 reporter 6%.
Screening Cc1c(Cl)cccc1NC(=O)N1CCOc2ccccc21 returned miR-21 reporter 0%.
For COc1ccc(OC)c(NC(=O)CCc2c(C)nc3c(c(C)nn3C(C)(C)C)c2C)c1 the results were miR-21 reporter inconclusive.
COc1ccccc1CNC(=O)C(=O)NCC(c1ccco1)S(=O)(=O)c1cccs1 (stereo not drawn) was read as miR-21 reporter -4%.
Screening O=C(Cn1c(=O)n(-c2ccccc2Cl)c(=O)c2sc3ccccc3c21)N1CCCC1 returned miR-21 reporter -4%.
O=S1(=O)c2ccccc2N(Cc2cccc(Cl)c2)c2ccccc21 was read as miR-21 reporter 21%.
Screening Fc1ccc(C2=CC(c3ccc(F)cc3)n3c(nc4ccccc43)N2)cc1 (stereo not drawn) returned miR-21 reporter -18%.
CCOC(=O)c1cc(-c2ccc(C)cc2)n(CC(=O)Nc2cc(C)ccc2C)c1C was read as miR-21 reporter -3%.
`COc1ccc(N2CCN(C(=O)C3CCN(Cc4nc(-c5ccc(Cl)cc5)oc4C)CC3)CC2)cc1` gave miR-21 reporter 7%.
Screening Cc1ccn2c(=O)cc(COc3ccc(NC(=O)COc4ccc(C)c(C)c4)cc3)nc2c1 returned miR-21 reporter 0%.
`Cc1c(C(=O)N2CCC(C)CC2)c(S(=O)(=O)N(Cc2ccccc2)C(C)(C)C)c(C)n1C` gave miR-21 reporter 12%.
`COc1ccccc1CNC(=O)C(=O)NCC(c1ccco1)S(=O)(=O)c1ccc(C)cc1` (stereo not drawn) gave miR-21 reporter 10%.
Screening COc1cccc(Nc2sc(C(=O)c3ccc4c(c3)OCO4)c(N)c2S(=O)(=O)c2ccccc2)c1 returned miR-21 reporter 0%.
`CCC(C(=O)O)n1ccc2cc(S(=O)(=O)N3CCCCC3)ccc21` (stereo not drawn) gave miR-21 reporter -2%.
Screening CC(C)(C)C1CCc2c(sc(NC(=O)c3ccncc3)c2C(=O)Nc2ccccc2Cl)C1 (stereo not drawn) returned miR-21 reporter 5%.
Screening CCOC(=O)c1[nH]c(C)c(CCC(=O)NCc2ccc(OCC)cc2)c1C returned miR-21 reporter -8%.
Screening CCN(Cc1ccccc1)S(=O)(=O)c1ccc2c(c1)CCCN2C(C)=O returned miR-21 reporter 8%.
`O=C(CSc1nnc(-c2cccs2)o1)Oc1ccc(Cl)cc1` gave miR-21 reporter -22%.
CCOc1ccccc1CNC(=O)c1ccc(N2Cc3ccccc3Oc3ncccc32)s1 was read as miR-21 reporter -5%.
Screening CCOc1ccc(NC(=O)Cn2c(=O)n(-c3cccc(OC)c3)c(=O)c3c4c(sc32)CCCC4)cc1 returned miR-21 reporter -6%.
For CCOC(=O)CC(NC(=O)c1cc2cc(Cl)ccc2oc1=O)c1ccc(C)cc1 (stereo not drawn) the results were miR-21 reporter 1%.
COc1cc(OC)cc(C(=O)NCCc2csc(-c3ccc(C(F)(F)F)cc3)n2)c1 was read as miR-21 reporter 10%.
Cc1ccc(S(=O)(=O)c2cn(Cc3ccccc3F)c3cc4c(cc3c2=O)OCO4)cc1 was read as miR-21 reporter -2%.
`COCCn1c(-c2ccccc2)c(C)n2c3c(=O)n(C)c(=O)n(C)c3nc12` gave miR-21 reporter inconclusive.
`CCOC(=O)c1ccc(NC(=O)c2c(NCc3cc(OC)ccc3OC)sc3c2CCC3)cc1` gave miR-21 reporter 0%.
For Cc1cc(C)c(S(=O)(=O)Nc2cc(Cl)c3oc4c(c3c2)C(=O)CCC4)cc1C the results were miR-21 reporter 0%.
CN(C)CCNC(=O)c1ccc2c(c1)N(Cc1c(F)cccc1Cl)C(=O)c1ccccc1S2 was read as miR-21 reporter -1%.
Cc1ccc(N(CC(=O)Nc2cc(C)ccc2C)S(=O)(=O)c2c(C)noc2C)cc1 was read as miR-21 reporter 18%.
For CCCc1nc2sc3c(N4CCCCC4)ncnc3c2c2c1CCCC2 the results were miR-21 reporter -2%.
`CCCCc1nn2c(=O)cc(COC(=O)c3ccccc3NC(=O)c3ccccc3OC)nc2s1` gave miR-21 reporter -1%.
`CCC(C)NC(=O)Cn1ccc2cc(S(=O)(=O)N3CCCCC3)ccc21` (stereo not drawn) gave miR-21 reporter 2%.
For CC1=C(C(=O)NCc2ccccc2F)C2(CCCCC2)OC1=O the results were miR-21 reporter -10%.
`CC1CCCCN1c1nnc(NC(=O)Nc2ccccc2F)s1` (stereo not drawn) gave miR-21 reporter 0%.
Screening Cc1nc2c(-c3ccccc3)c(C)[nH]n2c(=O)c1Cc1ccc(C(C)C)cc1 returned miR-21 reporter inconclusive.
For Cc1ccc(Cn2c(SCc3ccc(C(=O)N4CCCCCC4)cc3)nc3ccncc32)cc1 the results were miR-21 reporter 22%.
For CCN1CCC(N(Cc2cccc(OC)c2)C(=O)Nc2ccc(C)cc2Cl)CC1 the results were miR-21 reporter 1%.
Cc1cc(O)c(C(c2cccc(Cl)c2)N2CCN(c3ccccc3)CC2)c(=O)n1Cc1ccco1 (stereo not drawn) was read as miR-21 reporter 4%.
Screening O=C(Nc1ccc(NC(=O)c2cccs2)cc1)c1cccc(Br)c1 returned miR-21 reporter -42%.
`CCOc1ccc(NC(=O)c2oc3ccccc3c2NC(=O)C2CCCCC2)cc1` gave miR-21 reporter 1%.

2 neighbouring records already listed, quoted:
Screening O=C(Nc1ccc(NC(=O)c2cccs2)cc1)c1cccc(Br)c1 returned miR-21 reporter -42%.
`CCOc1ccc(NC(=O)c2oc3ccccc3c2NC(=O)C2CCCCC2)cc1` gave miR-21 reporter 1%.

Structures shown so far containing two or more sulfur atoms (6):
Screening C=C(C)CSc1nc2sc3c(c2c(=O)n1-c1ccccc1)CC(C(C)C)OC3 (stereo not drawn) returned miR-21 reporter 4%.
Screening CSCCC(NS(=O)(=O)c1ccc2c(c1)oc(=O)n2C)C(=O)N1CCN(c2ccc(F)cc2)CC1 (stereo not drawn) returned miR-21 reporter -1%.
For CCCCCSc1nnc2c(n1)OC(c1ccc(C)s1)N(C(C)=O)c1ccccc1-2 (stereo not drawn) the results were miR-21 reporter 6%.
COc1ccccc1CNC(=O)C(=O)NCC(c1ccco1)S(=O)(=O)c1cccs1 (stereo not drawn) was read as miR-21 reporter -4%.
Screening COc1cccc(Nc2sc(C(=O)c3ccc4c(c3)OCO4)c(N)c2S(=O)(=O)c2ccccc2)c1 returned miR-21 reporter 0%.
`O=C(CSc1nnc(-c2cccs2)o1)Oc1ccc(Cl)cc1` gave miR-21 reporter -22%.

Following part.
CCCNS(=O)(=O)c1cc(-c2nnc3c4ccccc4c(C)nn23)ccc1OC was read as miR-21 reporter -25%.
`COc1ccc(C2C(=O)N(C3CCC(C)CC3)CC(=O)N2C2CCCCC2)cc1OC` (stereo not drawn) gave miR-21 reporter -2%.
`Cc1cccc(Cn2c(CNS(=O)(=O)c3ccc(C(C)C)cc3)nc3cccnc32)c1` gave miR-21 reporter 8%.
`COC(=O)c1ccc(NC(=O)C(C)Sc2nc(=O)cc(N)n2CCc2ccccc2)cc1` (stereo not drawn) gave miR-21 reporter 11%.
For Cc1cc(=O)[nH]c2nnc(SCc3ccc(F)cc3)n12 the results were miR-21 reporter -10%.
Cc1cc(C)cc(NC(=O)CSc2nc(=O)n(Cc3ccccn3)c3c2CCC3)c1 was read as miR-21 reporter 4%.
Screening CC(C)c1ccc(NC(=O)CSC2=Nc3ccccc3C3=NC(CC(=O)NCc4cccs4)C(=O)N23)cc1 (stereo not drawn) returned miR-21 reporter -7%.
`CC(=O)N1CCc2c(sc3c2c(=O)n(Cc2ccccc2)c(=O)n3Cc2ccc(C)cc2)C1` gave miR-21 reporter 0%.
`Cc1cccc(NCc2nc3ccccc3n2CCOc2ccccc2C)c1` gave miR-21 reporter 13%.
Screening CS(=O)(=O)c1ncc(Cl)c(C(=O)N2CCN(c3cccc(Cl)c3)CC2)n1 returned miR-21 reporter inconclusive.
O=c1cc(-c2ccccc2)c2ccc3c(c2o1)CN(Cc1cccc(Cl)c1)CO3 was read as miR-21 reporter -16%.
Cc1ccc2nc(COc3ccccc3NC(=O)Nc3ccc(F)c(Cl)c3)cc(=O)n2c1 was read as miR-21 reporter -22%.
CCCN1CCC(NC23CC4CC(CC(C4)C2)C3)CC1 was read as miR-21 reporter 7%.
Screening COc1cccc(-c2cc(C(=O)NCCc3ccc(C)cc3)[nH]n2)c1 returned miR-21 reporter -7%.
For CC(C)(C)c1ccc(S(=O)(=O)c2cn(CC(=O)Nc3ccccc3)c3ccccc3c2=O)cc1 the results were miR-21 reporter 11%.
Screening Cc1ccccc1CN1C(=O)c2ccccc2S(=O)c2ccc(C(=O)NCc3ccccc3)cc21 (stereo not drawn) returned miR-21 reporter 1%.
`CCC(C)NC(=O)c1ccc2nc(CCc3ccccc3)oc2c1` (stereo not drawn) gave miR-21 reporter -22%.
COc1ccccc1CNC(=O)CCCn1c(=O)c2ccccc2n(CC(=O)Nc2c(C)cc(C)cc2C)c1=O was read as miR-21 reporter -7%.
`Cc1oc2ccc(O)c(CN3CCCC(C)C3)c2c1C(=O)Nc1ccccc1` (stereo not drawn) gave miR-21 reporter 8%.
For CCOC(=O)c1cccc(NC(c2nnc(-c3ccccc3)o2)c2ccccc2F)c1 (stereo not drawn) the results were miR-21 reporter 6%.
For CCOc1ccc(Nc2c3c(nc4nncn24)CCC3)cc1 the results were miR-21 reporter 29%.
Screening Cc1ccc(C2=NN(CCC(=O)NCCc3cccc(C)c3)C(=O)CC2)cc1 returned miR-21 reporter 6%.
For Cc1ccc(C)c(N2CCN(C(=O)C3CCN(c4nc(-c5ccc(C(C)C)cc5)no4)CC3)CC2)c1 the results were miR-21 reporter 28%.
`CCCCOc1ccc(C(=O)NCCc2csc3nc(-c4ccccc4F)nn23)cc1` gave miR-21 reporter 15%.
`Cc1cccc(N2C(=O)CS(=O)(=O)C23C(=O)N(Cc2c(F)cccc2Cl)c2ccccc23)c1` (stereo not drawn) gave miR-21 reporter -1%.
Screening CCc1nn(CC(=O)NCCc2ccc(OC)cc2OC)c(=O)c2cc3c(OC)cccc3n12 returned miR-21 reporter 0%.
For CCC(=O)N1CCc2cc(CNS(=O)(=O)c3cc(OC)ccc3OC)ccc21 the results were miR-21 reporter -8%.
Screening COc1ccc(Cn2c(SCc3ccc(C(=O)NCc4cccs4)cc3)nc3cccnc32)cc1 returned miR-21 reporter 17%.
`Cc1csc2nc(COC(=O)c3ccccc3NC(=O)c3ccc(C(C)(C)C)cc3)cc(=O)n12` gave miR-21 reporter -9%.
`CCOc1ccc(-c2cc(NC(=O)c3c(F)cccc3F)c(C(=O)OC)s2)cc1` gave miR-21 reporter -5%.
For Cc1ccsc1CN(C(=O)c1ccc(Br)cc1)C1CCS(=O)(=O)C1 (stereo not drawn) the results were miR-21 reporter -4%.

An excerpt; rates above refer to the full screens.
